From PubChem
NS1 function inh: blocks influenza NS1 protein function; 0.4% of 270,000 active; S. cerevisiae slowed by influenza A NS1, growth recovery by OD600; Potency, µM (titrated, usually from 46.1 µM), without a hit: at the top dose activity, positive = more growth; also: actives are rising curves; nearly all actives have a fitted effect of over 50% in size
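S. cerevisiae expressing influenza A NS1, grown in glucose, washed, then diluted 1:100 into pH 6.0 -URA galactose medium with 23 nl compound. Growth recovery read as OD600; NS1-free strain serves as control.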
Cruzain inh noDet: cruzain (T. cruzi) inhibition without detergent. P25779. purified cruzain, Z-FR-AMC fluorescence, no detergent. Potency, µM, for inactives: max response, negative = inhibition, hits mostly inhibitors. 2.3% of 200,000 active. AID 1476; active = well fitted curve in the direction sought with a large enough effect; inconclusive = small, poorly fitted or top-dose-only effect, or another doubt; inactive = no such curve, though single readings can be large; an effect the other way counts as inactive or inconclusive;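 also: plate controls were enzyme without inhibitor for no effect and buffer without enzyme for full effect; nearly all actives have a fitted effect of over 40% in size; top concentration of the series not given in the record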
Target sequence (P25779 123-467 limits assumed): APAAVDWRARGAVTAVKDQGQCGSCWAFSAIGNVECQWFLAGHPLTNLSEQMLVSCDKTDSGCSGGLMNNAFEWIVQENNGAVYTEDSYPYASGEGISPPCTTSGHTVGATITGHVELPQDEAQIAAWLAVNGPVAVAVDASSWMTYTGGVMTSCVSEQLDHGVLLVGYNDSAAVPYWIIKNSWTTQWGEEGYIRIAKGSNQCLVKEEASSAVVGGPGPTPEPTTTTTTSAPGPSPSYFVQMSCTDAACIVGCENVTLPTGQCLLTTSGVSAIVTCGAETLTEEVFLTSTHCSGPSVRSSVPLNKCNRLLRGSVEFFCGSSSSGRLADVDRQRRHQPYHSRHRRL
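Purified cruzain at 1.5 nM, pre-incubated 15 min with compound at room temperature in 100 mM sodium acetate pH 5.5, 5 mM DTT, 0.00005% Triton X-100. Reaction started with 2 uM Z-FR-AMC; AMC fluorescence increase over 60 s gives rate.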
RE007 growth inh: less growth of the S. pombe RE007 Vpr strain | S. pombe RE007 Vpr strain, BacTiter-Glo ATP luminescence, 24 h; control for the full effect not named in the record | Potency, µM (titrated, usually from 92.2 µM), for the others: top-dose activity change, negative = less growth | 0.21% of 360,000 active; active = well fitted falling curve with a large enough effect; inconclusive = small, poorly fitted or top-dose-only effect; inactive = no such curve, though single readings can be large or run the other way;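 also: % is scaled to controls: 0 for no effect and ±100 for the full control effect; nearly all actives have a fitted effect of over 50% in size; the assay follows cell death caused by Vpr and the record does not say whether a fall means rescue or toxicity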
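Fission yeast strain RE007, carrying one chromosomally integrated HIV-1 vpr copy, was seeded at OD 0.01 in PMG+AL medium with 23 nL pinned compound. After 24 h at 30 °C and 99% humidity, viability was read by BacTiter-Glo luminescence.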
Cruzain inh Det: blocks cruzain activity in presence of Triton detergent. 0.43% of 200,000 active. AID 1478. Potency, µM, without a hit: max response, negative = inhibition, hits mostly inhibitors. purified cruzain, Z-FR-AMC fluorescence, 0.01% Triton. P25779; active = well fitted curve in the direction sought with a large enough effect; inconclusive = small, poorly fitted or top-dose-only effect, or another doubt; inactive = no such curve, though single readings can be large; an effect the other way counts as inactive or inconclusive;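 also: plate controls were neutral wells for no effect and buffer without enzyme for full effect; nearly all actives have a fitted effect of over 40% in size; top concentration of the series not given in the record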
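Enzyme 1.5 nM, Z-FR-AMC 2 uM, NaOAc 100 mM pH 5.5, DTT 5 mM, Triton X-100 0.01%; 15 min RT compound preincubation; kinetic ex360/em450, 60 s delta.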
MARV entry inh: blocks Marburg virus binding to or entry into cells; Marburg virus pseudotyped entry inhibition, cell reporter; control for the full effect not named in the record; about a third of the inactives were read at about 46 µM; Potency, µM (doses to about 37.8 µM), for the others: top-dose activity change, negative = inhibition, usual class: inhibitors; 1.8% of 300,000 active; AID 540276; active = well fitted inhibition curve with a large enough effect; inconclusive = small, poorly fitted or top-dose-only effect, or effect the other way; inactive = flat fitted curve, though single readings scatter; tested in HEK293 cells; about a fifth of its hits are not listed in these tables; also: % is scaled to controls: 0 for no effect and ±100 for the full control effect; luciferase read-out
StopGo reporter: lowers the luciferase signal of an FMDV 2A StopGo reporter; human cells with a luciferase reporter of 2A StopGo recoding; control for the full effect not named in the record; Potency, µM (highest dose often 57.9 µM), for inactives: top-dose signal change, negative = less light; 1.2% of 410,000 active; AID 1159524; active = well fitted falling curve with a large enough effect; inconclusive = small, poorly fitted or top-dose-only effect; inactive = no such curve, though single readings can be large or run the other way; tested in HEK293T cells; also: % is scaled to controls: 0 for no effect and ±100 for the full control effect; nearly all actives have a fitted effect of over 45% in size; luciferase light after 4 h
SARS PLpro yeast: inhibitors of SARS-CoV papain-like protease in yeast; 0.19% of 330,000 active; Potency, µM (series often up to 32.9 µM), for the others: top-dose activity, positive = growth rescue; S. cerevisiae expressing SARS-CoV PLpro, growth rescue; control for the full effect not named in the record; also: 0% is about no effect; nearly all actives have a fitted effect of over 55% in size; growth read by luminescence after 48 h
Lassa entry inh: Lassa virus entry inhibition | Lassa virus pseudotype entry inhibition, cell reporter; control for the full effect not named in the record | Potency, µM (series often up to 37.9 µM), inactives show at the highest dose activity change, negative = inhibition, hits mostly inhibitors | 1.2% of 300,000 active; active means well fitted inhibition curve with a large enough effect; inconclusive means small, poorly fitted or top-dose-only effect, or effect the other way; inactive means flat fitted curve, though single readings scatter; tested in HEK293 cells; also: % is scaled to controls: 0 for no effect and ±100 for the full control effect; nearly all actives have a fitted effect of over 50% in size; luciferase read-out
The depositor's hits bear a star; ? = inconclusive; . = no result given; [ ] = another dose, or the depositor's remark. Unless noted, calls follow the shape of the dose curve; as a rule, active means well fitted rising curve with a large enough effect; inconclusive means small, poorly fitted or top-dose-only effect; inactive means no such curve, though single readings can be large or run the other way. Potency is read from the fitted curve at half-maximal effect.

SMILES	NS1 function inh	Cruzain inh noDet	RE007 growth inh	Cruzain inh Det	MARV entry inh	StopGo reporter	SARS PLpro yeast	Lassa entry inh
CC(C)c1cc(-c2cc(C(=O)NCc3ccccc3)on2)nc(NC2CCCC2)n1	1%	.	5%	.	.	-18%	-3%	.
O=C(c1ccc2nccnc2c1)N1CCN(c2ccccc2)CC1	6%	.	-4%	.	.	-8%	4%	.
COc1cc(S(=O)(=O)NC2CCCC2)c(OC)cc1C	-13%	.	-1%	.	.	64%[activator]	0%	.
CCN(CC)C(=O)CSc1nnc(C2CCCCC2)o1	-14%	-11%	18%	1.3%	28%	47%[activator]	8%	26%
CC1CCCCN1C(=O)C(=O)c1cn(CC(=O)N2CCCC2)c2ccccc12 (stereo not drawn)	?	.	12%	.	-7%[46.1 µM]	17%	2%	8%[46.1 µM]
Cc1c(C(=O)N2CCCCCC2)c(S(=O)(=O)Nc2ccccc2F)c(C)n1C	10%	.	-12%	.	.	50%[activator]	?	.
CC(=O)c1ccc(NC(=O)C(C)n2c3ccccc3c3nc(=O)cc(C)n32)cc1 (stereo not drawn)	8%	.	10%	.	.	-14%	3%	.
O=c1[nH]c2ccccc2nc1Cc1ccccc1	-7%	5%	-11%	1.8%	4%	31%[activator]	10%	-13%
O=C1Nc2cc(C(F)(F)F)ccc2N2CCCCC12 (stereo not drawn)	0%	.	-4%	.	?	-19%	1%	23%
COCC1CCN(C(=O)C2CCC(=O)N(CCc3ccc(Cl)cc3)C2)CC1 (stereo not drawn)	-12%	.	7%	.	.	2%	13%	.
Brc1ccc(-c2cn3ccccc3n2)cc1	-53%	.	?	.	?	-55%	-4%	2.8µM*
Cc1ccc(NC(=S)Nc2ccc(Cl)c(Cl)c2)c(OC(F)F)c1	-28%	-10%	-23%	-7.3%	?	?	-90%	2%
Cc1ccc(/C=C/C(=O)OCC(=O)Nc2ccccc2Sc2ccccc2)cc1	-5%	13µM*	0%	-5.8%	?	-9%	-9%	8%
O=C1COc2ccc(C(=O)COC(=O)c3ccccc3Cl)cc2N1	.	.	6%	.	2%	18%	2%	13%[46.1 µM]
O=C(NCc1cccnc1)c1cccc2c1C(=O)N(Cc1cccnc1)C2	4%	0%	-4%	3.7%	36%	-10%	4%	-3%
COc1cc(/C=N/NC(=O)CCN2CCN(c3ccccc3)CC2)cc(OC)c1OC	0%	5%	-10%	1.3%	1%[46.1 µM]	-19%	8%	-2%
COc1cccc(-c2nc(Cn3c(=O)cc(C)c4c(C)nn(-c5ccccc5)c43)c(C)o2)c1OC	.	-1%	.	-1.6%	.	2%	.	-13%[46.1 µM]
Cc1ccc(NC(=O)Nc2cnccn2)cc1	-11%	.	-5%	.	?	25%	-1%	3%[46.1 µM]
CCOc1ccccc1CNC(=O)c1cc(-c2ccc(OC)cc2)nc2ccc(C(C)C)cc12	.	-9%	.	-0.2%	.	25%	.	24%[46.1 µM]
Cc1cc(NC(=O)Nc2ccccc2[N+](=O)[O-])no1	-2%	.	-13%	.	-3%[46.1 µM]	37%[activator]	0%	6%
COc1c(C)cc(C(=O)C2CCCN(Cc3c(C)n(C)n(-c4ccccc4)c3=O)C2)cc1C (stereo not drawn)	0%	.	-4%	.	?	4%	0%	-6%
CC(C)CC1NC(=O)N(CC(=O)Nc2ccccc2-c2ccccc2)C1=O (stereo not drawn)	.	.	4%	.	15%[46.1 µM]	4%	4%	.
CCN(C(=O)CSc1nnc(-c2ccc(Cl)cc2)n1C)C1CCS(=O)(=O)C1 (stereo not drawn)	.	.	-11%	.	10%[46.1 µM]	1%	0%	-15%
O=C(CCc1nnc2ccc(N3CCCC3)nn12)Nc1cc(F)ccc1F	10%	.	2%	.	.	-23%	-5%	.
CC1CC1C(=O)Nc1nc2ccc(Cl)cc2s1 (stereo not drawn)	.	.	-28%	.	?	19%	.	-30%[46.1 µM]
Additional records follow.
SMILES	NS1 function inh	Cruzain inh noDet	RE007 growth inh	Cruzain inh Det	MARV entry inh	StopGo reporter	SARS PLpro yeast	Lassa entry inh
O=C(CNc1cccc2ccccc12)N/N=C/C(Br)=C/c1ccccc1	5%	-26%	-25%	-6.8%	?	.	-9%	?
COc1ccc(OC)c(S(=O)(=O)n2cccn2)c1	3%	4%	29%	6.1%	-22%	12%	-3%	-1%
CC(C)N(C(=O)CSc1nc(COc2ccccc2)nc2ccccc12)C(C)C	.	.	1%	.	?	2%	0%	?
COc1ccccc1C(=O)NC(=O)Nc1c(C)cc(C)cc1C	-9%	.	10%	.	.	-28%	-4%	.
CC(C)=N/N=C(/c1ccc([N+](=O)[O-])cc1)C12CN3CN(CN(C3)C1)C2	.	.	-4%	.	-4%[46.1 µM]	4%	-4%	-13%
Cc1ccc(C2(C)NC(=O)N(CC(=O)NNC(=O)c3cc(C)oc3C)C2=O)cc1 (stereo not drawn)	.	.	17%	.	0%	-19%	2%	18%
O=C(CN1C(=O)/C(=C/c2cccc(Br)c2)SC1=S)NC1=NCCS1	9%	.	1%	.	-11%[46.1 µM]	4%	2%	-6%
CCOC(=O)N1CCN(CC(=O)Nc2ccc(F)c(F)c2F)CC1	.	.	0%	.	0%[46.1 µM]	0%	4%	?
COc1ccc(C(C)(C)C)cc1NC(=O)Cn1cnnn1	-1%	.	-1%	.	.	-14%	2%	.
COCCN1C(=O)C(=O)/C(=C(/O)c2ccc(S(=O)(=O)N3CCCCC3)cc2)C1c1ccc(OC)c(OC)c1 (stereo not drawn)	21%	.	3%	.	?	-22%	2%	19%
COc1ccc(CCNC(=O)c2ccccc2NC(=O)c2ccco2)cc1OC	-12%	-4%	-7%	-1.6%	?	-26%	4%	-23%
Clc1cccc(-n2ncc3c(NCCCn4ccnc4)ncnc32)c1	.	2%	.	-0.8%	.	40%[activator]	.	11%[46.1 µM]
CCc1ccc2c(c1)cc(CN(C(=S)Nc1ccccc1C)C1CC1)c1nnnn12	1%	0%	2%	-1.6%	-8%	.	2%	-19%
O=C(CN1CCC(n2nnc3ccccc32)CC1)Nc1ccc2c(c1)CCC2	-19%	-5%	-15%	5.1%	2%	7%	-1%	-21%
CCOC(=O)CSc1nc2c(c(=O)n1-c1ccc(OCC)cc1)SCC2	9%	1%	-3%	1.9%	-1%	-7%	2%	1%
O=c1c2c3c(sc2n(CCN2CCCC2)c(=O)n1Cc1ccccc1)CCCCC3	-3%	.	10%	.	.	?	0%	.
COc1ccc(CCNC(=O)Cn2nc(C(=O)O)c3ccccc3c2=O)cc1OC	.	.	-8%	.	2%	-4%	-2%	15%
Cn1c(N)c(C(=O)CSc2nnc(NC3CCCCC3)s2)c(=O)n(C)c1=O	.	.	1%	.	1%[46.1 µM]	-29%	-1%	7%
C/C=C/C(=O)Nc1ccccc1Br	8%	1%	-7%	2.7%	13%	.	1%	0%
O=C(NCc1ccc2c(c1)OCO2)c1ccc2c(c1)C(=O)N(Cc1cccnc1)C2=O	2%	7%	5%	-0.5%	-12%[46.1 µM]	-21%	?	-3%
OC1COC(OCC2OC(OCc3ccccc3)C(O)C(O)C2O)C(O)C1O (stereo not drawn)	4%	.	1%	.	.	-22%	2%	.
COc1ccccc1C(=O)NCCn1cc(SCC(=O)NCC2CCCO2)c2ccccc21 (stereo not drawn)	1%	.	4%	.	-18%	0%	.	-19%
Cc1ccc(S(=O)(=O)N2CCN(S(=O)(=O)N3CCCCC3)CC2)c(C)c1	2%	-7%	3%	-2.6%	-5%	.	1%	-13%
Cc1ccc2[nH]c3c(=O)n(CCCN4CCOCC4)cnc3c2c1	4%	8%	9%	-3.9%	-5%	-5%	-4%	2%
Cc1nc(/C(N)=N/OC(=O)c2cccc(Cl)c2)c(C(F)(F)F)o1	-4%	.	9%	.	.	7%	-2%	.
The results go on:
SMILES	NS1 function inh	Cruzain inh noDet	RE007 growth inh	Cruzain inh Det	MARV entry inh	StopGo reporter	SARS PLpro yeast	Lassa entry inh
CCN(CC(=O)NCc1cccs1)C(=O)c1ccc(S(=O)(=O)Nc2ccccc2C)cc1	.	.	-15%	.	4%	-2%	0%	-1%
O=C1OC(Nc2ccc3c(c2)OCO3)c2ccccc21 (stereo not drawn)	1%	-26%	-5%	8.1%	-24%	?	0%	-4%
CC(C)CCOc1ccc(-c2c(=O)n(OCc3ccc([N+](=O)[O-])cc3)c3ccccc3[n+]2[O-])cc1	22%	-3%	13%	-1.1%	-17%	-14%	-3%	-5%
Cc1nc(C(=O)Nc2cccc(Cl)c2Cl)nn1-c1cc(OC(C)C)c(Cl)cc1Cl	?	?	4%	-1.7%	-10%	-6%	-22%	4%
COc1ccc(-c2cn3nc(SCC(=O)Nc4ccccc4F)ccc3n2)cc1	.	28%	.	-1.7%	.	0%	.	?
CCOc1ccc(N2C=Nc3ccc(OCC)cc3C2)cc1	-3%	.	-4%	.	.	-2%	2%	.
Cc1ccc(S(=O)(=O)N(Cc2ccccc2)c2ccccc2C(=O)N2CCCCC2)cc1	-30%	.	7%	.	10µM*	13%	-8%	?
CCOC(=O)c1ccc2c(c1)N(Cc1ccc(F)cc1Cl)C(=O)c1ccccc1S2(=O)=O	.	10µM*	.	1.5%	.	2%	.	?
COc1ccccc1C1CCCN1Cc1nc(-c2ccc(C)s2)oc1C (stereo not drawn)	1%	.	-13%	.	?	-20%	-1%	3.5µM*
Cc1cc(NC(=O)C(C)Sc2nc(-c3cccs3)nc3ccccc23)no1 (stereo not drawn)	.	.	11%	.	?	-2%	13%	?
O=C(Cn1cnc2ccccc2c1=O)N1CCN(c2ccc(F)cc2)CC1	1%	.	1%	.	5%[46.1 µM]	-13%	2%	-18%
COc1cc(/C=C(\C#N)C(=O)N2CCc3ccccc32)ccc1O	-47%	.	-10%	.	.	60%[activator]	-16%	.
Cc1cccc(NC(=O)c2cnc3scc(C)n3c2=O)c1	-12%	-9%	-16%	-9.7%	.	33%[activator]	-6%	.
O=C(Nc1ccccc1C(=O)NC1CCCCC1)c1ccccc1	-16%	.	-8%	.	.	0%	-2%	.
Cc1ccc(N2CC(C(=O)N3CCOCC3)CC2=O)cc1C (stereo not drawn)	3%	.	-10%	.	-1%[46.1 µM]	1%	-7%	-7%
Cc1ccc([C@@H]2C[C@H]3CN(Cc4cccc(Cl)c4)C(=O)[C@]34CCCN24)o1	3%	.	5%	.	17%[46.1 µM]	11%	0%	6%
Cc1ccc2c(Cl)c(C(=O)Nc3nn[nH]n3)sc2c1	.	.	3%	.	?	13%	0%	24%
